NPYLR7 agonist – activates Aedes aegypti NPYLR7 receptor; HEK293T NPYLR7/Galpha15, GCaMP6s calcium fluorescence; activation, % at 10 µM; hit rate 0.15% among 270,000; in the data active = activation above about 40%;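 also: 0% = vehicle and 100% = reference agonist at the receptor; some compounds past the cut are filed as inactive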
NPYLR7 agonist max-min – also measured in NPYLR7 agonist; calls as there; activation, %; measured here: Max-Min RFU normalised activation; some inactives read as strong as hits;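 span of the calcium signal over five minutes; 0% = vehicle and 100% = native peptide agonist; compound fluorescence can raise it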
* marks the source's active call; other numbers are inactive results.

Each structure is followed by: NPYLR7 agonist	NPYLR7 agonist max-min
1. CCOC(=O)c1cnc(-c2ccc(OC)c(OC)c2)nc1NC(CC)c1ccccc1 (centres undefined)
 : 5	2
2. CN1CCN(C(CNC(=O)Cc2cccc3ccccc23)c2ccsc2)CC1 (centres undefined)
 : 5	-6
3. N#Cc1ccc(C(NCCc2nc3ccccc3s2)C(N)=O)cc1 (centres undefined)
 : 10	9
4. O=C1C(Nc2ccc(Cl)cc2)=C(N2CCCCC2)C(=O)c2ccccc21
 : 17	25
5. Cn1nc(-c2ccc(F)cc2)cc1C(=O)NCc1nc2ccccc2[nH]1
 : 6	5
6. COC(=O)C1(F)CCN(C(=O)c2cc(F)cc(F)c2)C1 (centres undefined)
 : 0	-7
7. CCOc1ccc(NC(=O)c2c(NC(=O)c3ccccc3)sc3c2CCCC3)cc1
 : -3	-7
8. Cc1cc(C)c(S(=O)(=O)NCc2ccc3c(c2)OCO3)cc1Br
 : 1	3
9. COc1ccc(-c2cc(C(=O)Nc3ccc(C)cc3)n(-c3cccc([N+](=O)[O-])c3)n2)c(OC)c1
 : -1	3
10. CCCCn1c(N)c(N(CCC)C(=O)Cc2c(F)c(F)c(F)c(F)c2F)c(=O)[nH]c1=O
 : 9	7
11. O=C(COC(=O)c1cc2c(s1)CCC2)NC(=O)NC1CCCCC1
 : 3	4
12. Cn1cnnc1C1CCN(Cc2cc(-c3ccccc3)ccc2OCC(=O)NC2CCS(=O)(=O)C2)CC1 (centres undefined)
 : -3	-1
13. CC(C)OC(=O)CN1C(=O)C(=O)N(C(C)C)C1=O
 : 0	-4
14. c1csc(-c2noc(CN3CCC(c4nc5ccccc5o4)CC3)n2)c1
 : 3	2
15. CC(C)CCn1c(CN2CCN(c3ccc(F)cc3)CC2)nc2c1c(=O)n(C)c(=O)n2C
 : 10	3
16. Cc1c(C(=O)NCc2ccc(C#N)cc2)sc(=O)n1Cc1ccccn1
 : 11	6
17. CO/N=C(/C(=O)NCCc1cccc(OC)c1)c1csc(NC=O)n1
 : 16	12
18. CC(C)CN(CC(=O)Nc1nc(CC(=O)NC(C)CCc2ccccc2)cs1)C(=O)c1ccc(F)cc1 (centres undefined)
 : 2	10
19. O=C(c1ccccc1F)N1CCC(Cc2ccc(F)cc2)CC1
 : 3	1
20. Cc1cc(C(=O)N2CCC(C)Nc3ccccc32)c(C)o1 (centres undefined)
 : 0	3
21. CC(C)=CC(=O)N1CC[C@@H](c2ccc(F)cc2)[C@H](O)C1
 : 1	0
22. CSC(=NS(=O)(=O)c1cccs1)Nn1cnnc1
 : 9	5
23. CCC(C)C1NC2(CCN(C(=O)C(C)C)CC2)N(CC2CCCO2)C1=O (centres undefined)
 : 5	3
24. CC(C)(C)c1cc2nc(C(=O)N(CCC#N)Cc3cccnc3)cc(-c3ccccc3F)n2n1
 : 2	11
25. O=C1NC2(CCN(Cc3ccc(C(F)(F)F)cc3)CC2)Nc2ccc(I)cc21
 : 5	20
26. CCCCCn1c(=O)c2c(nc3n2CCCN3Cc2ccco2)n(C)c1=O
 : -1	-2
27. CN1CCN(Nc2ncnc3sc4c(c23)CCCC4)CC1
 : 2	1
28. COc1cc(CNC2CC2)cc(Cl)c1OC
 : 3	1
29. Cc1cc(C)n(C(C)c2n[nH]c(CC(C)C)n2)n1 (centres undefined)
 : -1	-3
30. Cn1ncc([N+](=O)[O-])c1C(=O)Nc1cccc(Cl)c1
 : -2	2
31. O=C1C(=O)N(CCN2CCOCC2)C(c2cccc([N+](=O)[O-])c2)C1=C(O)c1ccc(F)cc1 (centres undefined)
 : 1	0
32. Cc1nc2scc(C)n2c(=O)c1NC(=O)Cc1ccc(F)cc1
 : 5	3
33. Cc1ccc2nc(N(Cc3cccnc3)C(=O)C3COc4ccccc4O3)sc2c1 (centres undefined)
 : -9	-8
34. Oc1oc(-c2ccc(Cl)cc2)nc1C=Nc1ccc2ccccc2c1
 : -2	-6
35. Cc1ccc(C(C)C)cc1OCC(=O)N=Nc1c(O)[nH]c2c(C)cc([N+](=O)[O-])cc12
 : 0	-3
36. Cc1nc2n(n1)C(=O)C(C(c1ccccc1F)N1CCN(Cc3ccccc3)CC1)S2 (centres undefined)
 : -12	-15
37. COc1ccc(C(=O)NCCCOC(C)C)cc1OC1CCN(C(C)=O)CC1
 : 5	1
38. Cc1oc(-c2cccs2)nc1CN1CCCCC1c1nccs1 (centres undefined)
 : 3	3
39. COc1ccc(CCNC(=O)c2csc(CSc3nnc(-c4ccco4)n3-c3cc(Cl)ccc3Cl)n2)cc1OC
 : 20	29
40. CC(C)c1nnc(NC(=O)C=Cc2ccsc2)s1
 : 8	13
41. O=C(c1cn2cc(Cl)ccc2n1)N1CC[C@@H](c2ccc(F)cc2)[C@H](O)C1
 : -1	-1
42. CC(C)NC(=O)c1ccc(CS(=O)(=O)c2ccccc2)o1
 : -2	-2
43. CCOC(=O)N1CCC(N2CCC3(CCNCC3)C2)CC1
 : 20	11
44. O=C(NCCN1CCc2ccccc2C1)N1CCC(c2ccccc2)C1 (centres undefined)
 : 5	2
45. Cc1nc2ccccc2nc1N1CCN(C(=O)c2ccc(F)cc2)CC1
 : 5	3
46. COc1ccc(C)c2sc(N(CCCN(C)C)C(=O)c3ccc(S(C)(=O)=O)cc3)nc12
 : -3	-9
47. CCCCCCCC(=O)N1CCN(c2cc(Cl)nc(SCC(=O)NCCc3ccc(Cl)cc3Cl)n2)CC1C (centres undefined)
 : -2	1
48. C=CCNC(=O)c1ccccc1NC(=O)c1ccccc1S(C)(=O)=O
 : 2	0
49. CNC(=O)[C@@H]1C[C@H](N)CN1C(=O)CCCn1nc(C)cc1C
 : 1	-4
50. O=S1(=O)N=C(Nc2ccc3c(c2)CCC3)c2ccccc21
 : 1	17

(continued)
Each structure is followed by: NPYLR7 agonist	NPYLR7 agonist max-min
51. CCOC(=O)c1c(CN2CCOCC2)n(-c2ccccc2)c2cc(Br)c(OC)cc12
 : 1	0
52. Cc1cc(C(=O)NCCS(N)(=O)=O)cc(C)c1OC(F)F
 : 1	0
53. O=C(c1ccco1)N1CCCN(Cc2ccc(C3CCCO3)s2)CC1 (centres undefined)
 : -4	-4
54. COc1cccc(NC(=O)N2CCC(c3nncn3C(C)C)CC2)c1
 : 9	2
55. C=CCN(Cc1csc(COc2ccccc2C(C)C)n1)C(=O)c1cccc(Br)c1
 : -10	-10
56. Cc1cc(Br)ccc1NC(=O)CNC(=O)CN1C(=O)C(C)Oc2ccccc21 (centres undefined)
 : -2	-2
57. O=S(=O)(Nc1c2c(nc3ccccc13)CCCC2)c1ccc(F)c(F)c1
 : 2	12
58. C=C(C)CSc1nc2c(c(=O)[nH]c(=O)n2C)n1CCCCCC
 : -4	-4
59. CCOc1cc2c(cc1CNC(=O)C1CCCO1)OC(C)C2 (centres undefined)
 : 10	7
60. O=C(C(F)F)N1CCC(n2c(Cc3ccccc3)nc3ccccc32)CC1
 : 27	16

Single values from the results shown.
NPYLR7 agonist max-min with entry 53 : -4
NPYLR7 agonist max-min with entry 51 : 0
NPYLR7 agonist max-min with entry 60 : 16
NPYLR7 agonist max-min with entry 54 : 2
NPYLR7 agonist max-min with entry 59 : 7

Next part
Each structure is followed by: NPYLR7 agonist	NPYLR7 agonist max-min
61. Cn1ccc(NC(=O)C=Cc2cccc([N+](=O)[O-])c2)n1
 : 12	11
62. Nc1nc(CSc2nnc3n2CCCCC3)nc(Nc2ccccc2)n1
 : -5	3
63. Cc1cc(=O)c(C(=O)NCCc2ccccn2)nn1-c1ccccc1
 : -1	0
64. Cc1nnc(Nc2cc(Cl)c(N)c(Cl)c2)c(C#N)c1C
 : 4	3
65. O=C(CCC1CCCN(Cc2nc3c(s2)CCCC3)C1)NC1CC1 (centres undefined)
 : 5	3
66. COc1cccc2cc(C(=O)NC(C)=O)c(=Nc3ccccc3)oc12
 : 9	-1
67. CN(C)C1CCN(C(C)(C)CNCc2cnc(N3CCCC3)nc2)CC1
 : 0	-10
68. COc1ccc(NC(=O)c2ccc(Cl)cc2)cc1OCc1ccncc1
 : 9	3
69. NS(=O)(=O)c1ccc(NNC(=S)NC2CCCCC2)c([N+](=O)[O-])c1
 : 10	6
70. COC(=O)C(C(=O)OC)C(C[N+](=O)[O-])c1ccc(Br)cc1 (centres undefined)
 : 6	4
71. CCCC(O)CN(Cc1ccccc1)Cc1ccccc1OC (centres undefined)
 : 17	16
72. CC1(C)C(c2ccccc2)=NC(c2ccc(F)cc2)N1O (centres undefined)
 : -13	-18
73. CC1=CC[C@@H]2CN(C(=O)c3nnc4nc(C)ccn34)C[C@@H]2C1
 : -1	0
74. CCCN(Cc1ccc(C(=O)OC)o1)Cc1ccccc1OC
 : -5	0
75. Cc1ccc(N2C(=O)/C(=C/c3ccc(-c4ccc([N+](=O)[O-])cc4)o3)C=C2c2ccccc2)cc1
 : -1	4
76. O=C(c1cccs1)N1N=C(C2CC2)CC1(O)C(F)(F)F (centres undefined)
 : -3	-5
77. OC(CN1C2=NCCCN2c2ccccc21)c1ccc(Br)cc1 (centres undefined)
 : 8	0
78. CCOC(=O)C1=C(C)N(C2CC2)C(=O)NC1c1c(F)cccc1Cl (centres undefined)
 : -1	-1
79. COc1cccc(-c2nn(-c3ccccc3)cc2CNCc2ccc3nsnc3c2)c1
 : 10	5
80. O=C(O)c1nc2ccccc2nc1C(=O)O
 : 4	2
81. CCn1cc(C(=O)N(C)Cc2snnc2C)c(C)n1
 : 8	6
82. O=C(NC(C(=O)Nc1cccnc1)c1ccccc1)c1cccs1 (centres undefined)
 : -5	-5
83. O=C(Nc1n[nH]c(-c2cccc(Cl)c2)n1)C1CC1c1cccnc1 (centres undefined)
 : -1	23
84. Cc1nc2ccc(NS(=O)(=O)c3ccccc3Cl)cc2s1
 : 9	1
85. CCCN(Cc1ccccc1O)C(=O)C1Cc2ccccc2C(=O)O1 (centres undefined)
 : 1	-2
86. CC(C)CN(Cc1c(-c2ccccc2)noc1N1CCCCC1)C(=O)Nc1cccc(Cl)c1
 : -1	1
87. CCC(=O)NCCn1cnc(-c2ccccc2)c1-c1ccc(OC)c(O)c1Cl
 : 6	3
88. CCO[C@H]1COC[C@@H]1NC(=O)C1(Oc2cccnc2C)CCNCC1
 : 3	-1
89. COCCn1c(=O)c2c(nc3n(Cc4ccco4)c(C)cn23)n(C)c1=O
 : 15	5
90. Cc1cc(=O)[nH]c(NN=C2CCCc3ccccc32)n1
 : 5	5
91. CC1(C(=O)NCc2ccco2)Cc2c(-c3cccc(C(F)(F)F)c3)ccnc2O1 (centres undefined)
 : 4	9
92. Cc1cccn2c(CN(Cc3nccn3C)C(C)C)c(C(=O)N3CCCCC3)nc12
 : 18	3
93. COc1ccc(C2C3C(=O)N(C)C(=O)C3N3C(c4ccc(OC)cc4)C4C(=O)N(C)C(=O)C4N23)cc1 (centres undefined)
 : 0	-1
94. CCOC(=O)CCC(=O)N1CCN(C(=O)CN2CCc3sccc3C2c2ccc(OC)cc2)CC1C (centres undefined)
 : 12	4
95. O=C(Nc1ccccc1OCCCc1ccccc1)c1ccccn1
 : 5	3
96. CN(C1CCCCC1)S(=O)(=O)c1ccc2c(c1)CCC(=O)N2
 : 29	34
97. COc1ccc(C2CCCN2S(=O)(=O)N2CCC(C)CC2)cc1 (centres undefined)
 : 1	-1
98. CCc1nc(C)c(C(=O)N2CCC(O)(CN(C)C)C2)o1 (centres undefined)
 : 20	19
99. O=C(CCCS(=O)(=O)c1ccc(F)cc1)N1CCN(c2nc3c(F)cccc3s2)CC1
 : 16	13
100. COCCc1noc(CN2C[C@H]3CC=CC[C@H]3C2)n1
 : 1	-5

Molecules listed so far with an NH in an aromatic ring:
Each structure is followed by: NPYLR7 agonist	NPYLR7 agonist max-min
5. Cn1nc(-c2ccc(F)cc2)cc1C(=O)NCc1nc2ccccc2[nH]1
 : 6	5
10. CCCCn1c(N)c(N(CCC)C(=O)Cc2c(F)c(F)c(F)c(F)c2F)c(=O)[nH]c1=O
 : 9	7
29. Cc1cc(C)n(C(C)c2n[nH]c(CC(C)C)n2)n1 (centres undefined)
 : -1	-3
35. Cc1ccc(C(C)C)cc1OCC(=O)N=Nc1c(O)[nH]c2c(C)cc([N+](=O)[O-])cc12
 : 0	-3
58. C=C(C)CSc1nc2c(c(=O)[nH]c(=O)n2C)n1CCCCCC
 : -4	-4
83. O=C(Nc1n[nH]c(-c2cccc(Cl)c2)n1)C1CC1c1cccnc1 (centres undefined)
 : -1	23
90. Cc1cc(=O)[nH]c(NN=C2CCCc3ccccc32)n1
 : 5	5

Later entries
Each structure is followed by: NPYLR7 agonist	NPYLR7 agonist max-min
101. CCOC(=O)CCC(=O)N1CCN(c2nccc(-c3ccc(N4CCOCC4)cc3)n2)CC1
 : -10	-4
102. C#CCN(Cc1ccco1)C(=O)Nc1cc2c(cc1Cl)OCCCO2
 : 13	11
103. O=C(c1sc2ccccc2c1Cl)N1CCN(S(=O)(=O)N2CCOCC2)CC1
 : 7	6
104. Cc1ccc(C2C(=C(O)c3ccc(Cl)cc3)C(=O)C(=O)N2Cc2cccnc2)cc1 (centres undefined)
 : 1	0
105. CC1CCC/C(=C\c2ccc(O)cc2)C1=O (centres undefined)
 : -5	-2
106. CCc1nc(N(CCC(=O)NC2CC2)CCc2ccccc2)c2ccc(Cl)cc2n1
 : 9	18
107. Cc1cc(Cc2cc(C)c(N)cc2C)c(C)cc1N
 : 3	2
108. Cc1ccc(-n2cnnn2)cc1NC(=O)N(C)CC1CCCN(C)C1 (centres undefined)
 : 10	7
109. Cc1sc2ncnc(SCC(=O)Nc3ccc(Cl)cc3)c2c1C
 : -1	-6
110. COc1ccc(C(=O)O/N=C2\c3ccccc3-c3ncccc32)cc1OC
 : 0	-3
111. CCCNC(=O)C(C)NC(=O)CN1CCN(S(=O)(=O)c2ccc(Br)c(C)c2)CC1 (centres undefined)
 : 2	-2
112. Cc1cccc(Cn2cnc3c(cnn3CCNC(=O)c3cc(C)cc(C)c3)c2=O)c1
 : -6	-12
113. O=C(/C=C/c1cnccn1)Nc1nnc(C2CC2)s1
 : 4	-1
114. O=C(CSc1ccc(-c2ccc(-n3cccn3)cc2)nn1)N1CCCC1
 : -7	-9

Compound activity from PubChem BioAssay.

The list is partial; the hit share may differ from the screen's.
